# Source: PubChem BioAssay
# LANA-H2A inh – blocks KSHV LANA binding to histone H2A/H2B; Q9QR71; cell-free LANA-H2A/H2B peptide, fluorescence polarization; inhibition, % (no concentration beside the values); 320,000 compounds, 0.6% hits; in the data active = inhibition mostly above about 10%, no sharp cut-off; inactive = mostly below about 6.7%;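 also: stock transfer was 7.5 nL into about 10 µL; 0% = median of vehicle wells and 100% = median of positive control wells; one replicate is shown; the record names a cut of 25% in any replicate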
# UCH37 DUB inh – blocks the human deubiquitinase UCH37; Q9Y5K5; purified proteasome/UCH37, Ub-AMC cleavage fluorescence; inhibition, % (concentration not given with the values); 330,000 compounds, 0.33% hits; AID 588478;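 active = mean of two replicates above 20%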;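 also: 0% = compound-free wells with enzyme and 100% = wells lacking proteasome; stock transfer was 100 nL into about 20 µL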
#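 System: Proteasome-associated human UCH37 deubiquitinase; Input: 0.15 nM proteasome in added enzyme buffer; Also added: Ub-AMC substrate from 1 µM stock; Incubation: 30 min compound-proteasome preincubation then 25 min substrate reaction, room temperature; Detection: fluorescence, ex 355 nm, em 460 nm; Read-out: % inhibition of Ub-AMC cleavage fluorescence; Benchmarks: no-proteasome and no-compound wells.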
# Vif TR-FRET – HIV-1 Vif–A3G interaction blockers – biochemical, TR-FRET, GST-Vif 1-94, biotin-A3G peptide, dose response retest, primary screen (AID 1117319) | 260,000 compounds, 0.57% hits | inhibition, %, or IC50 in µM where a hit was titrated | TR-FRET GST-Vif / biotin-A3G peptide binding; higher % means a stronger effect; test concentration not given here; strong numbers were not always called active;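 active = above the screen mean plus three standard deviations and confirmed in dose response; inconclusive = results disagree or hit not tested in dose response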;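 also: Vif residues 1-94 fused to GST binding biotinylated APOBEC3G peptide 110-148; 0% = full assay without inhibitor and 100% = GST in place of GST-Vif; retest series ran down from 100 µM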
# HNF4A DNA FP – change in binding of human HNF4 alpha to DNA. 360,000 compounds, 0.3% hits. AID 1224865. activity change, % at 10 µM. HNF4a-FITC DNA binding, fluorescence polarization, 1 h. P41235; in the data active = activity change above about 30%, passing the limit was not always enough;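 also: controls were the assay level and a saturating level of protein; the project sought stronger binding though the title names inhibitors; some compounds called inactive have numbers as strong as hits; positive values seem to mean higher polarization but the record does not say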
# Target sequence (P41235 whole entry, looked up): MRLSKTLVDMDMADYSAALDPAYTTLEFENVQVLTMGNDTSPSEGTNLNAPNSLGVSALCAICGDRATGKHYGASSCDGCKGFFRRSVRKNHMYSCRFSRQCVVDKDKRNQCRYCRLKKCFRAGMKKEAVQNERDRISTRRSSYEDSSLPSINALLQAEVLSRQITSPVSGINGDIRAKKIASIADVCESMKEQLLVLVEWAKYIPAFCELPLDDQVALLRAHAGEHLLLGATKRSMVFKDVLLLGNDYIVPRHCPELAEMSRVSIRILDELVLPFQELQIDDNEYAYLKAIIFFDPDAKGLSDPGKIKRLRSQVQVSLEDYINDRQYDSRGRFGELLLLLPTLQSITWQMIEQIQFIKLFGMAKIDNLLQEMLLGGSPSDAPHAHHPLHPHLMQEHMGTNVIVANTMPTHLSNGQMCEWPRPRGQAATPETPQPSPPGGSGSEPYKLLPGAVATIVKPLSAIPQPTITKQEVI
# Beta2AR agonist – agonists of human beta-2 adrenergic receptor inducing internalization; P07550; Am2.2-beta2AR cells, FAP receptor internalization, flow cytometry; reference of the scale not given here; response, % (no concentration beside the values); 340,000 compounds, 0.43% hits;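 active = response above a set limit, near 3 SD of response in nonfluorescent compounds, cut at about 42% in these data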;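 also: stock transfer was 100 nL into about 11 µL; a reference agonist was the positive control; negative values mostly stem from fluorescent compounds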
# Target sequence (P07550 whole entry, looked up): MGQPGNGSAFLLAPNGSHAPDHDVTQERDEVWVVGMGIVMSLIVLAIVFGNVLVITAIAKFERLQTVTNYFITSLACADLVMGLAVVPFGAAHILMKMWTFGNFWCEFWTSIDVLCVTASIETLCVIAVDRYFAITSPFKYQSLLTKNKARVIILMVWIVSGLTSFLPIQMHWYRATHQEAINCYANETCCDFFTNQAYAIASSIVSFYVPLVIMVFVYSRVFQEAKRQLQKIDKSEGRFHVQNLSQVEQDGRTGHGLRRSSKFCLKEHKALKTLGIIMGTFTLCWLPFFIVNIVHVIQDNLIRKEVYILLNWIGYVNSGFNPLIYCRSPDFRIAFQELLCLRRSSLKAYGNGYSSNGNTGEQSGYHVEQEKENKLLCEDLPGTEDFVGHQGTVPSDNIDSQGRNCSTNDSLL
# Bfl-1 A1 inh – inhibitors of the anti-apoptotic protein A1, read as caspase activation. MEF A1-2A-BIM cells, Caspase-Glo 3/7 luminescence, 3 h; percent of clofoctol response, vehicle zero. caspase activation, % (no concentration beside the values). 330,000 compounds, 0.066% hits;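 active = over half of replicate activation scores above 10%, or exactly half above 10 with the replicate mean above 10; inconclusive = replicate mean below 10 yet half the replicates above 10; inactive = over half of replicates below 10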;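 also: wells of about 30 µL received 50 nL stock; many hits fall short of the cut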
# E coli growth – blocks Escherichia coli growth; OD600 absorbance (no concentration beside the values); 330,000 compounds, 0.21% hits; OD600, 23 h; stronger effect = lower value;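 active = OD600 absorbance below the run mean of sample wells minus 3.6 SD, in any replicate, cut at about 0.56 in these data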;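 also: stock transfer was 300 nL into about 60 µL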
# * = called active by the depositor; ? = inconclusive; . = not tested or not shown; & = joins results of further samples. Not a hit list (roughly 2.1% active in at least one column).
SMILES,LANA-H2A inh,UCH37 DUB inh,Vif TR-FRET,HNF4A DNA FP,Beta2AR agonist,Bfl-1 A1 inh,E coli growth
COc1ccccc1CN(CC(=O)NCC1CCCO1)C(=O)CNS(=O)(=O)c1ccc(C)cc1 (stereo unspecified),-2.2,1.3,1%&-7%,2.6,-1,0.1,0.75
O=C(CCCN1C(=O)c2cccc3cccc(c23)C1=O)Nc1ccon1,1.2,.,-3%,-0.9,7,-0.3,.
COc1ccc(-c2onc(C)c2-c2cscn2)c(O)c1,-0.5,0.6,-7%,2.5,5,0.1,0.57
O=C(c1cc2nc(-c3ccco3)cc(C(F)(F)F)n2n1)N1CCN(Cc2ccccc2)CC1,5.9,-75,2%,1.6,0,-0.1,0.65
O=C(NCC(c1cccs1)N1CCc2ccccc21)c1ccccc1 (stereo unspecified),2.0,2.9,0%,-2.5,6,0.3,0.66
COc1ccc(Nc2nc(-c3sc(NC(C)=O)nc3C)cs2)cc1,2.9,.,6%,.,.,0.4,.
Cn1c(SCC(=O)NNC(=S)Nc2ccccc2)nnc1-c1ccncc1,6.3,3.2,7%,.,.,2.1,0.68
CCOC(=O)c1ccc(NC(=S)Nc2ccc(C)cc2)cc1,1.5,4.7,8%,-1.2,8,-0.4,0.69
O=C(CNC(=O)c1cccc(OC(F)F)c1)OCn1nnc2ccccc2c1=O,0.5,-1.0,-11%,2.4,1,0.2,0.65
O=C(/C=N/O)NCCCN1CCOCC1,-0.7,.,.,2.0,-5,-0.4,.
O=C(NCc1ccc(F)cc1)C(=O)NCC1OCCN1C(=O)c1cccs1 (stereo unspecified),-2.5,1.3,.,-1.8,-23,-0.1,0.66
CC(C)COC(=O)C(N)C(C(=O)OCC(C)C)c1ccccc1 (stereo unspecified),3.2,2.4,12%,3.0,-6,-0.7,0.69
C=CCNC(=O)c1ccc(OC2CCN(S(=O)(=O)N(C)C)CC2)cc1,-2.0,6.6,-1%,2.5,2,0.1,0.67
O=C(COc1ccc(Cl)cc1Cl)NNC(=S)Nc1ccc(F)cc1,-2.9,3.1,23%,0.1,-17,0.1,0.66
O=C(CS(=O)(=O)c1ccc(F)cc1)NCc1ccccc1,-2.5,1.1,-1%,-0.1,-3,0.0,0.71
CCCN1C(=O)C2(SC(NC(C)=O)=NN2C(C)=O)c2cc(C)cc(C)c21 (stereo unspecified),-0.3,2.8,30%,-1.1,6,-0.3,0.65
CCOC(=O)c1cnc2ccc(C)cc2c1Nc1ccc(N2CCOCC2)cc1,-2.9,6.7,2%,-5.8,-1,0.7,0.67
COc1ccc2oc(C(=O)N(C)CCOc3ccc(Cl)cc3)c(C)c2c1,-12,3.3,.,1.8,-6,0.3,0.69
Cc1sc2nc(CN3CCOCC3)[nH]c(=O)c2c1-c1ccccc1,0.3,2.3,-9%,1.0,2,-0.5,0.69
O=C(Nc1nnc(-c2ccc(Cl)cc2)o1)Nc1ccccc1Cl,-3.1,1.1,-2%,-0.2,2,-0.5,0.74
O=C(CSc1cn[nH]n1)Nc1ccccc1C(F)(F)F,1.8,2.1,.,3.6,7,0.1,0.69
CCOC(=O)C1CCCN(S(=O)(=O)c2cc(OCC(N)=O)c(C)cc2Cl)C1 (stereo unspecified),-1.5,5.2,-4%,1.5,5,-0.6,0.71
CN1C(C(=O)Nc2ccc(OC(F)(F)F)cc2)=CC(c2cccs2)=NS1(=O)=O,4.3,4.2,.,-3.1,-7,-0.5,0.69
O=C(COC(=O)c1ccc(O)cc1)NC1CCCC1,2.2,3.0,-2%,4.8,-7,0.4,0.64
CCCC1(C2CCCC2)NC(=O)NC1=O (stereo unspecified),.,-0.5,-7%,0.4,-8,.,0.71

# Sorted by the number under Beta2AR agonist (high to low): 3 from the list above
SMILES,Beta2AR agonist
O=C(CNC(=O)c1cccc(OC(F)F)c1)OCn1nnc2ccccc2c1=O,1
CCOC(=O)c1cnc2ccc(C)cc2c1Nc1ccc(N2CCOCC2)cc1,-1
O=C(COC(=O)c1ccc(O)cc1)NC1CCCC1,-7

# (next part)
SMILES,LANA-H2A inh,UCH37 DUB inh,Vif TR-FRET,HNF4A DNA FP,Beta2AR agonist,Bfl-1 A1 inh,E coli growth
COc1ccc(NC(=O)CSc2nnc(-c3ccncc3)o2)c([N+](=O)[O-])c1,4.2,3.0,.,6.4,7,-0.8,0.69
CC1(C)NC(C)(C)/C(=C\c2cccs2)C(=O)C1=O,-15,7.9,.,1.4,12,-0.3,0.69
O=C1c2ccccc2C(O)N1Cc1ccc2c(c1)OCO2 (stereo unspecified),2.6,1.3,2%,2.2,3,-0.2,0.75
Cn1c(=O)c2c3c(sc2n2cnnc12)CCC3,-4.4,-0.8,12%,-1.8,0,-0.2,0.7
S=C(Nc1ccccc1)Nc1nc2ccccc2n1CCOc1ccccc1,-1.4,1.6,-21%,-6.6,-11,-0.1,0.76
CC(C)Cn1c(-c2cccs2)nc2ccccc21,2.2,-63,-3%,1.6,-18,1.4,0.66
C=CCN1C(=O)C(O)(CC(=O)c2ccc(-n3cccc3)cc2)c2ccccc21 (stereo unspecified),2.7,-2.9,-3%,7.9,-2,0.0,0.61
CCOc1ccc(NC(=O)c2ccc(NC(=O)COC(=O)Cc3ccc(OC)cc3)cc2)cc1,-6.0,1.8,.,-1.2,12,0.9,0.69
COc1ccc(-c2cc(-c3cccs3)nc(OC)c2C#N)cc1OC,-0.9,-435,.,-1.1,5,-0.8,0.79
O=C(CNC(=O)c1cccc(F)c1)N/N=C/c1cc(Br)ccc1OC(=O)/C=C/c1ccco1,.,.,28%,-4.0,1,.,.
CCN1C2=NCCCN2c2ccccc21,-5.0,1.4,-1%,0.4,-1,0.1,0.7
COCC(C)NC(=O)CSc1nc2ccccc2n1CCc1ccccc1 (stereo unspecified),-10,1.8,10%,5.8,4,0.8,0.64
O=C(COC(=O)c1ccc(F)c(S(=O)(=O)N2CCOCC2)c1)c1ccc(Cl)cc1,-2.2,0.3,-4%,1.3,12,-0.6,0.69
CC(C)(C)c1cc(OC(=O)c2ccccc2F)ccc1O,-0.8,1.0,-5%,0.9,5,0.6,0.67
C=CCn1c(C)cc(C(=O)CSc2ccc(NC(C)=O)cc2)c1C,7.1,3.0,1%,0.3,-2,-0.4,0.75
COc1cc(C(=O)N[C@@H](C)C(=O)N2CCC3(CC2)NCCc2[nH]cnc23)cc(OC)c1OC,1.1,2.5,.,-2.2,-2,1.6,0.68
Cc1nn(CCCC(=O)Nc2ccc(Br)cc2F)c(C)c1[N+](=O)[O-],-1.6,1.4,.,-1.3,-1,0.1,0.71
CCOc1ccc(-c2n[nH]c(C)c2Oc2ccccc2OC)c(O)c1,0.3,3.3,-2%,3.2,11,-0.7,0.68
Cc1[nH]oc(=O)c1N=Nc1c(Cl)cccc1Cl,4.7,17,-2%,2.2,11,0.1,0.67
O=C(CN1c2ccccc2Sc2ccccc21)NNC(=O)Nc1cccc(Cl)c1,-2.7,5.1,-14%,2.7,-1,1.0,0.72
COc1ccc(C(=O)N/N=C/c2ccc(OC)c(CSc3ccccn3)c2)cc1,-2.6,.,16%,-4.2,4,0.4,.
COc1ccc(CCN=C(C)C2=C(O)C(c3ccccc3)OC2=O)cc1OC (stereo unspecified),-1.2,4.1,-1%,1.4,3,-0.6,0.67
CNCCC1Sc2ccccc2Oc2ccccc21 (stereo unspecified),0.0,4.2,-3%,-6.7,3,0.2,0.67
COc1ccc(-n2c(C)cc(C(=O)COC(=O)c3cc(NC(=O)c4cccs4)c(OC)c(OC)c3)c2C)cc1,-0.8,-24,-64%,2.5,-6,0.1,0.69
COc1ccc(Cl)cc1NC(=S)N1CC(C)OC(C)C1 (stereo unspecified),-2.6,0.7,.,0.3,5,-0.4,0.7

# Not a retest: entries from further up.
SMILES,LANA-H2A inh,UCH37 DUB inh,Vif TR-FRET,HNF4A DNA FP,Beta2AR agonist,Bfl-1 A1 inh,E coli growth
CC1(C)NC(C)(C)/C(=C\c2cccs2)C(=O)C1=O,-15,7.9,.,1.4,12,-0.3,0.69
O=C1c2ccccc2C(O)N1Cc1ccc2c(c1)OCO2 (stereo unspecified),2.6,1.3,2%,2.2,3,-0.2,0.75
Cn1c(=O)c2c3c(sc2n2cnnc12)CCC3,-4.4,-0.8,12%,-1.8,0,-0.2,0.7
S=C(Nc1ccccc1)Nc1nc2ccccc2n1CCOc1ccccc1,-1.4,1.6,-21%,-6.6,-11,-0.1,0.76

# Continuation.
SMILES,LANA-H2A inh,UCH37 DUB inh,Vif TR-FRET,HNF4A DNA FP,Beta2AR agonist,Bfl-1 A1 inh,E coli growth
O=C(Nc1ccc(Cl)cc1)C1CCCCN1S(=O)(=O)c1ccccc1 (stereo unspecified),1.4,2.9,.,3.0,8,0.3,0.69
O=C(NC1CCCCCC1)c1cccc(N2CCCC2=O)c1,0.1,-0.1,20%,3.5,5,-5.2,0.69
O=C(CSc1ncccn1)N1CCN(Cc2ccccc2)CC1,-1.6,3.1,-2%,0.0,3,1.5,0.72
CN(C)CCCNC(=S)Nc1ccc(-c2ccccc2)cc1,-8.5,2.7,-2%,4.0,6,0.0,0.69
COc1ccccc1CNC(=O)C1CCC(=O)N1C(C)C (stereo unspecified),-1.2,5.1,.,0.2,2,0.7,0.69
COc1ccc(CCNC(=O)CSc2nnc(NC(C)=O)s2)cc1OC,9.5,-1.9,.,2.1,1,-0.4,0.7
COc1ccc(/C=C(\C#N)C(=O)OCC(=O)NC(=O)NCCC(C)C)cc1,4.2,1.6,6%,5.5,3,0.9,0.7
COc1ccc(N/C=C2\CCc3ccccc3C2=O)cc1,0.5,2.1,?,22,4,0.4,0.59
Cc1onc(-c2ccccc2)c1C(=O)Nc1cccc(OC(C)C)c1,-7.2,3.3,-2%,7.9,-4,-0.5,0.72
CCN1c2ccccc2NC2C1C(C(C)=O)C(=O)N2c1ccc(Cl)cc1 (stereo unspecified),-1.2,0.9,23%,45*,-64,0.6,0.67
Cc1ccc(Nc2nc(N)nc(CSc3nc4ccccc4s3)n2)cc1,-5.1,1.7,-2%,1.9,-12,0.5,0.68
COc1ccc(CC(=O)N2CC(C)CC(C)C2)cc1 (stereo unspecified),-5.7,-3.8,0%,1.7,-6,-0.2,0.64
COc1ccccc1-c1cn[nH]c1-c1ccc(OCc2ccccc2)cc1O,-5.2,.,3%,1.6,5,3.5,.
CCOC(=O)Cc1csc(NC(=O)c2ccc(N3CCOCC3)cc2[N+](=O)[O-])n1,3.9,5.9,.,-0.6,9,-1.1,0.68
CCC1(c2ccccc2)NC(=O)N(CC(=O)N2CCN(S(=O)(=O)c3ccccc3)CC2)C1=O (stereo unspecified),-1.4,3.5,8%,-2.7,1,0.1,0.68
COc1cc2nc(C3CC3)n(NC(=O)c3ccc(Cl)cc3)c(=O)c2cc1OC,1.2,4.9,-5%,1.1,1,0.1,0.66
CCN(C(=O)CN1CCCCCC1)c1c(N)n(Cc2ccccc2)c(=O)[nH]c1=O,-0.7,.,3%,8.9,1,0.5,.
O=C(NCCO)C1(c2ccc(Cl)cc2)CCCC1,-0.2,6.5,1%,-3.4,0,-0.1,0.73
O=C1/C(=C/c2cccnc2)SC(=S)N1N1CCOCC1,6.5,6.5,-6%,-0.2,0,0.5,0.62
Fc1ccc(C2C3=C(Nc4ncnn42)c2ccccc2OC3c2ccncc2)cc1 (stereo unspecified),3.9,-68,28%,1.1,9,-0.2,0.7
Cc1ccc2cc(CCNC(=O)c3ccco3)c(=O)[nH]c2c1,0.4,-3.3,-10%,2.0,-7,0.4,0.67
